Screening results deposited in PubChem BioAssay by several laboratories.
eIF4H FP inh – human eIF4H binding inhibitors, primary screen, translation initiation inhibitor project, biochemical, uHTS, fluorescence polarization; inhibition, % at 35 µM; eIF4H fluorescence polarization binding assay; 290,000 compounds, 0.94% hits; Eukaryotic translation initiation factor 4H (Homo sapiens), Q15056; AID 2012, 2009;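 active = 50% or more with normal probe brightness, or confirmed in later tests; about a fifth of its hits are not listed in these tables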;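 note: calls also rest on retests at 20 µM and on dose response follow-up; 0% = protein and probe with vehicle and 100% = probe without protein; strong numbers were not always called active; many hits fall short of the cut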
PABP polyA inh – PABP poly(A) RNA binding inhibitors, primary screen, biochemical, fluorescence polarization, uHTS. inhibition, % at 35 µM. 290,000 compounds, 1% hits. AID 2014, 2009;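 active = 50% or more with normal probe brightness, or confirmed in later tests; about a fifth of its hits are not listed in these tables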;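 note: calls also rest on retests at 20 µM and on dose response follow-up; controls were probe without protein and protein plus probe with vehicle; some compounds called inactive have numbers as strong as hits; many hits fall short of the cut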
Target sequence (P11940 whole entry, looked up): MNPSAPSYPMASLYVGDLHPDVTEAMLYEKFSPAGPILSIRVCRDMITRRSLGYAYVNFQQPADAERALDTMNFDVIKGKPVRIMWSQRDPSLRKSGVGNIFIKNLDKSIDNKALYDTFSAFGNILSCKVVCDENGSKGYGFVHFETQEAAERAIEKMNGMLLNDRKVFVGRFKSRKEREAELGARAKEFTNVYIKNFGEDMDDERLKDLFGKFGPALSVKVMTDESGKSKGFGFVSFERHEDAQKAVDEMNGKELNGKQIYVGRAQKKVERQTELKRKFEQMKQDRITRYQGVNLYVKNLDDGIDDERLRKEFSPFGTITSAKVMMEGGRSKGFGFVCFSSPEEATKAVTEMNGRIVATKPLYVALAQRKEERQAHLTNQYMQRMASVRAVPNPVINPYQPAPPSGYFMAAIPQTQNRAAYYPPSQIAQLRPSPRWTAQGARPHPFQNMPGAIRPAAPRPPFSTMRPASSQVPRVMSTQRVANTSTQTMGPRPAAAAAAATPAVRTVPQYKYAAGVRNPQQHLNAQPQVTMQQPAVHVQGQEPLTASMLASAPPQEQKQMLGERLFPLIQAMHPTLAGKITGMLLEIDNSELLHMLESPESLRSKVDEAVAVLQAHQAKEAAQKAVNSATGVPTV
CSC inhib – cancer stem cell viability inhibitors, primary screen, luminescence; cancer stem cell-like cells viability; inhibition, % at 7.5 µM; 300,000 compounds, 1.1% hits;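 active = mean at 75% or more and at least half the replicates too; tested in HMLE shEcad cells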;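 note: 0% = median of negative and 100% = median of positive control wells; the first replicate is given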
Rce1 inhib – yeast Rce1p protease inhibitors, primary screen, biochemical, fluorescence, cell-free homogeneous; CAAX prenyl protease 2 (Saccharomyces cerevisiae (strain ATCC 204508 / S288c)), Q03530; yeast membranes, quenched prenylated peptide cleavage fluorescence; calls only; 290,000 compounds, 0.27% hits;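 active = fall in fluorescence gain of 50% or more versus controls, with final raw signal at or below 3038400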;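 note: plate controls were neutral control wells for no effect and wells lacking membranes for full effect; tested at 10 µM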
Target sequence (Q03530 whole entry, looked up): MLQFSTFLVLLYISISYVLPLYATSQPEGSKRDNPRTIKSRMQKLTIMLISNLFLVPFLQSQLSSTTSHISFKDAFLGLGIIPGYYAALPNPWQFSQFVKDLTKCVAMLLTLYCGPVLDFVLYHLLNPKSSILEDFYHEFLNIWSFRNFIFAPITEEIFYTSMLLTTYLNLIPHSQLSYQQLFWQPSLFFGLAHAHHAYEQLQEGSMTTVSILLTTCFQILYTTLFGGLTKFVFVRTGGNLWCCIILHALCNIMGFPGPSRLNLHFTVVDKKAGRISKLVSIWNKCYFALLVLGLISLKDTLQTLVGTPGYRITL
HIV Env fusion – inhibitors of HIV-1 Env-driven cell-cell fusion, primary screen, HeLa-JRFL effector, CEM21 target cells, luciferase | inhibition, % at 12.3 µM | 360,000 compounds, 1.1% hits | AID 651610, 2012;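 active = mean replicate inhibition score of at least 50 and every replicate individually at or above 50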;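 note: 0% = plate neutral controls and 100% = maraviroc near 300 nM; one replicate is shown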
UUG fidelity – modulators of yeast start codon fidelity, primary screen, whole organism, S. cerevisiae, single point, plate reader; S. cerevisiae UUG-firefly luciferase reporter, luminescence/redox ratio; activity score, % at 18.7 µM; 350,000 compounds, 0.13% hits;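 active = replicate mean at a twofold rise or more, about +100% in these data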;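 note: firefly luciferase made from a UUG start codon reports start codon fidelity; reporter light over untreated wells divided by growth signal over untreated wells; some hits fall short of that in this replicate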
MT1-MMP act inh – blockers of MT1-MMP proenzyme processing, primary screen, HT1080 RFP-PRO-GFP cells, GFP/RFP fluorescence; GFP/RFP ratio fluorescence, overnight; percent of plate control window, DMSO zero; GFP/RFP ratio change, % at 20 µM; 360,000 compounds, 0.061% hits;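 active = GFP/RFP ratio change of at least 30% with cell ATP level not reduced by more than half and red fluorescence within 50% of control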; note: strong numbers were not always called active
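system = RFP-PRO-GFP reporter HT1080 cells | dosing = 20 µM single dose, 1% DMSO | timing = overnight cell settling, then overnight compound exposure, 37 °C, 5% CO2 | read-out basis = GFP/RFP fluorescence ratio | controls = DMSO and RFP-L50D-GFP cell wells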
eIF4H FP inh retest – second read-out of eIF4H FP inh, no call of its own (marks repeat the call); inhibition, %; compound at 20 µM; confirmation average;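 mean of two retest wells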
PABP polyA inh retest – recorded beside PABP polyA inh, whose call it bears; inhibition, %; compound at 20 µM; confirmation repeats;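 mean of two retest wells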
MT1-MMP act inh RFP – second read-out of MT1-MMP act inh, no call of its own (marks repeat the call); RFP signal change, %; measured here: RFP expression control read;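 0 = vehicle wells; hits needed this value within 50% of zero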
* = called active by the depositor; i = inactive; nt = no result given; + = active, no number; & = joins results of further samples; [ ] = remark or other dose. Compounds as they come; about 2.9% have a hit in one of these screens.

SMILES	eIF4H FP inh	PABP polyA inh	CSC inhib	Rce1 inhib	HIV Env fusion	UUG fidelity	MT1-MMP act inh	MT1-MMP act inh RFP	others
Cc1c(C(=O)N2CCCCC2)c(S(=O)(=O)N2CCC(C)CC2)c(C)n1C	6	2	-2	i	6	-3	3	5
COC(=O)C1=C(C)N(c2cc(Cl)cc(Cl)c2)C(=O)C1	-6	9	9	i	-24	-13	-20	-1
O=C(NCCCn1ccnc1)c1csc2ccccc12	-13	-10	-4	i	nt	-15	4	7
CSc1ccc(CN2CCC2(C)C(=O)NCc2ccccc2Br)cc1 (stereo unspecified)	nt	nt	nt	nt	26	-12	-8	-12
O=C(O)CC1(CC(=O)NCc2cc(F)cc3c2OCOC3)CCCCC1	5	0	3	i	12	-16	1	5
CC(C)CNC(=O)c1cc(=O)[nH]c2ccc(S(=O)(=O)Nc3ccc(F)cc3)cc12	-9	3	0	i	9	-12	4	5
CC(C)C1C(=O)N(Cc2cn(CCC3OCCCO3)nn2)CCS(=O)(=O)N1Cc1ccc(-c2ccc(Cl)nc2)cc1 (stereo unspecified)	nt	nt	nt	nt	-31	0	5	2
c1ccc(-c2ccc(-n3ccnc3)cc2)cc1	-12	-1	-8	i	-30	-11	-2	-1
O=C1NC(c2ccc3c(c2)OCO3)Oc2ccccc21 (stereo unspecified)	1	7	-7	i	nt	-5	2	3
COC(=O)c1ccc(/C=N/NC(=O)C2CC(=O)N(c3ccc(OC)cc3)C2)cc1 (stereo unspecified)	2	16	-7	i	-1	-9	1	3
O=C(Nc1ccc(S(=O)(=O)NCC2CCCO2)cc1)c1cccc(F)c1 (stereo unspecified)	-2	0	-3	i	-3	12	3	-7
COC(=O)c1c(N)c(C#N)c(C)n1-c1ccccc1	-16	-11	-1	i	nt	-12	-4	-3
O=C(c1ccncc1)N1CCN(CCc2ccccc2)CC1	1	-7	nt	i	-5	-14	-9	-6
O=C(NCc1ccccc1CN1CCCC1)c1ccc(S(=O)(=O)Nc2ccccc2F)cc1	nt	nt	nt	nt	20	21	-1	-2
COc1cc2c(c(OC)c1)C(c1cccc(OC)c1OC)CC(=O)N2 (stereo unspecified)	-3	-16	-3	i	-33	-16	3	2
CCC(C)(C)n1nnnc1C(c1cc2cc(C)cc(C)c2[nH]c1=O)N1CCCC1 (stereo unspecified)	19	4	1	nt	6	1	-3	-1
Cc1ccc(S(=O)(=O)Cc2cn3cccnc3n2)cc1	1	3	nt	+	nt	-9	3	5
O=C(Nc1cccc(Cl)c1)NC1(C(=O)NCc2cccs2)CCCCC1	-4	6	-2	nt	nt	-13	5	1
CCOc1ccc(CCNC(=O)c2cccc(S(=O)(=O)N3CCCC3)c2)cc1OCC	nt	nt	-6	i	-21	-6	3	-2
CCc1ccc(C(=O)c2cncc(Br)c2)cc1	-3	0	-5	i	44	-17	-10	-6
COc1ccc(-c2c3c(nc4sc5c(=O)[nH]c(C)nc5c24)CCC3)cc1	1	14	-1	i	nt	2	-1	-3
O=C(Nc1ccc2oc(-c3cccnc3)nc2c1)c1cc2ccccc2o1	7	-14	-5	i	nt	-1	-1	-8
CC(NS(=O)(=O)c1ccc2c(c1)CC(=O)N2C)c1ccccc1 (stereo unspecified)	10	0	6	i	1	-9	0	4
CC1CCCC(NC(=O)c2cccc(S(=O)(=O)N3CCCCC3)c2)C1C (stereo unspecified)	4	3	-16	i	-6	-1	0	-4
COc1ccc(N(C)S(=O)(=O)c2cccc(C(=O)OCC(=O)Nc3sc4c(c3C#N)CCCCC4)c2)cc1	-10	8	-11	i	18	nt	-3	-3
CC(C)N=C1NN=C(c2cccs2)C(CC(=O)O)S1 (stereo unspecified)	2	11	-8	i	-7	-15	4	10
CCc1ccccc1NC(=O)C1CCN(S(C)(=O)=O)CC1	nt	nt	-12	i	5	-8	2	1
O=C(CSCc1ccccc1)N/N=C/c1ccccc1OCc1ccccc1	-2	3	-3	i	nt	-14	-3	-1
COc1ccc(S(=O)(=O)N2CCCCC2c2cc(C(=O)NCc3ccccc3)no2)cc1 (stereo unspecified)	nt	nt	nt	nt	12	-11	-3	-7
O=C1/C(=C\Nc2ccccc2)CCN1c1ncccn1	5	6	-8	i	nt	-6	2	4
C=C(C)COc1ccc2c(CC)cc(=O)oc2c1C	-11	-15	10	i	-16	nt	2	2
O=C(Nc1ccc2c(c1)OCCO2)C(c1ccc(F)cc1)N1CCCCC1 (stereo unspecified)	-2	3	-2	i	-84	-32	1	-3
COc1ccccc1NC(=O)c1ccc2c(=O)n3c(nc2c1)CCC3	nt	nt	nt	nt	16	6	-1	3
Cc1nc(Nc2ccc(O)cc2)c2c3c(sc2n1)CCCC3	3	8	15	i	12	7	-3	-3
O=C(Nc1nc(-c2ccc3ccccc3c2)cs1)C1CCN(S(=O)(=O)c2cccs2)CC1	-3	-9	15	i	21	nt	-18	-28
Cc1cccc(OCCCC(=O)NCCc2ccccc2)c1	-1	6	-9	i	-6	nt	-5	1
CC(C)(C)NC(=O)COC(=O)c1ccc(O)cc1	4	4	0	i	2	-15	0	2
O=C(O)c1[nH]c2ccccc2c1C(c1c(F)cccc1Cl)c1c(C(=O)O)[nH]c2ccccc12	2	7	-6	i	10	4	1	2
COc1ccc(S(=O)(=O)Nc2cccc3c2O[C@H](CN(C)C(=O)Nc2ccc4c(c2)OCO4)[C@@H](C)CN([C@H](C)CO)C3=O)cc1	nt	nt	0	nt	-3[16.7 µM]	1&21	-3	-4
Cc1ccccc1CC(=O)N1CCCC1	0	2	-6	i	-6	-16	3	3
Cc1ccnc(NC(=O)c2ccc(Cl)c(S(=O)(=O)N3CCCC3)c2)c1	nt	nt	nt	i	13	nt	-4	-19
COc1ccc(NC(=O)c2cnc(SC)nc2C)c(OC)c1	-7	0	-8	i	12	-28	2	3
CCCC(=O)Oc1c(S(=O)(=O)c2ccc(C)cc2)c(C)nn1C(C)(C)C	-8	-10	28	i	-18	13	-8	-10
COc1cccc(NS(=O)(=O)c2ccc(S(=O)(=O)N3CCCC3)cc2)c1	nt	nt	4	nt	nt	-3	-1	-8
CCC(=O)N1CCN(c2ccccc2NC(=O)COc2cccc(C)c2)CC1	-2	-1	-6	i	-20	-3	-4	0
CN1CCN(S(=O)(=O)c2ccc(NC(=S)NC(=O)C3CCCCC3)cc2)CC1	9	10	nt	i	-5	nt	0	-1
CC1CN(C(=O)CN2C(=O)NC(C)(c3ccccc3)C2=O)CC(C)O1 (stereo unspecified)	3	-6	5	i	-12	1	2	1
COc1ccccc1NS(=O)(=O)c1cc(C(=O)N2CCCC2)ccc1F	nt	nt	nt	nt	3	-5	5	2
COCCNS(=O)(=O)c1cc2[nH]c3c(c2cc1C)C(=O)CC(C)(C)C3	-10	7	-18	i	-7	-13	-4	-8
COc1ccc(/C=c2/sc3n(c2=O)C(c2ccccc2OC)C2=C(N=3)c3ccccc3CC2)cc1O (stereo unspecified)	-10	-5	64	i	-81	-1	-29	-23
CCn1c(=O)cc(SCC(=O)NCc2ccc(C)cc2)c2ccccc21	-2	4	28	i	-119	1	4	4
O=C(Cc1ccccc1)Nc1ccc2c(c1)C(=O)N(CC1CCCO1)C2=O (stereo unspecified)	7	-10	-7	i	-5	nt	6	7
Cc1ccc(NC(=S)N(CCCN2CCOCC2)Cc2ccccn2)cc1	0	1	2	i	nt	-19	-1	1
C/C(=N\NC(=O)c1sccc1C)c1cccnc1	4	-2	-1	i	-9	8	-4	1
Cc1nc(CCN2C(=O)c3ccccc3C2=O)cs1	0	9	-12	i	-46	-17	3	2
Cc1ccccc1-n1cc[nH]c1=S	-10	-10	-10	i	-9	nt	2	0
NC(=O)CCC(=O)N1CCCC(C(=O)c2ccc3c4c(cccc24)CC3)C1 (stereo unspecified)	-5	-5	-19	i	12	nt	0	5
Oc1c(C(c2ccco2)N2CCC3(CC2)OCCO3)sc2ncnn12 (stereo unspecified)	54	43	4	i	13	2	6	6	eIF4H FP inh retest=12;PABP polyA inh retest=15
CCOc1ccc(CCNC(=O)CCS(=O)(=O)c2ccc(OC)cc2)cc1OCC	1	0	3	i	-10	nt	-5	0
CCOCc1nnc(NC(=O)CCc2ccccc2)s1	5	-4	2	i	18	21	2	2

(listing goes on)
SMILES	eIF4H FP inh	PABP polyA inh	CSC inhib	Rce1 inhib	HIV Env fusion	UUG fidelity	MT1-MMP act inh	MT1-MMP act inh RFP	others
Cc1ccc(NC(=O)Nc2sc(=S)n(C)c2C)cc1	3	-9	-13	nt	nt	-8	3	4
Cc1cc(Cl)ccc1OCCCC(=O)NNC(=O)c1ccccc1O	nt	nt	26	i	-1	-9	-1	-5
COc1ccc(C2CC(c3ccccc3)=NN2C(=O)COC(=O)c2cccc(O)c2)cc1 (stereo unspecified)	nt	nt	-2	nt	-155	-13	-1	-4
COCCNc1nc2nonc2nc1N(C)Cc1ccc(C)cc1	-4	-7	nt	i	-39	nt	-3	3
O=C(/C=C/c1ccco1)c1cccnc1	56*	27*	-1	i	-4	nt	-1	2	eIF4H FP inh retest=108*;PABP polyA inh retest=60*
COc1ccc(C(CC(=O)N2CCCCC2)c2c(OC)cc(OC)c3c(-c4ccccc4)cc(=O)oc23)cc1 (stereo unspecified)	nt	nt	-6	i	-6	-9	-18	-16
Cc1nnc(NC(=O)c2cccc(Br)c2)s1	-8	1	5	i	nt	-12	3	1
S=C(NCc1ccco1)N1CCN(c2cccc(Cl)c2)CC1	-5	-3	-7	i	6	nt	4	1
CC(=O)Nc1ccc(NC(=O)Cn2nc(C(=O)Nc3ccc(C)cc3)ccc2=O)cc1	-3	2	-8	i	1	-10	1	2
COc1cc2c(cc1OC)C(c1ccccc1Cl)N(C)CC2 (stereo unspecified)	2	11	-5	i	-4	6	-3	-4
Cc1cc(C)c2nc(NC(=O)C3CSC4(C)CCC(=O)N34)sc2c1 (stereo unspecified)	nt	nt	7	nt	-25	-15	-7	-2
CCCc1cc(=O)[nH]c(SCC(=O)N(CC)Cc2ccccc2)n1	-5	-5	7	i	nt	nt	0	2
CCC(c1nnnn1C(C)(C)C)N1CCN(Cc2ccccc2OC)CC1 (stereo unspecified)	6	-8	-11	i	10	nt	2	1
Cc1nc(C)c(C(=O)C2=C(O)C(=O)N(CCCn3ccnc3)C2c2ccc(Cl)cc2)s1 (stereo unspecified)	-3	-1	3	i	nt	-13	-2	2
CCc1nnc(NC(=O)CSc2nc3cc4c(cc3cc2C)OCCO4)s1	6	-4	-12	i	-98	-10	3	5

Retrieved by compound from the entries so far:
SMILES	eIF4H FP inh	PABP polyA inh	CSC inhib	Rce1 inhib	HIV Env fusion	UUG fidelity	MT1-MMP act inh	MT1-MMP act inh RFP	others
COc1ccc(C(CC(=O)N2CCCCC2)c2c(OC)cc(OC)c3c(-c4ccccc4)cc(=O)oc23)cc1 (stereo unspecified)	nt	nt	-6	i	-6	-9	-18	-16
Cc1ccc(NC(=O)Nc2sc(=S)n(C)c2C)cc1	3	-9	-13	nt	nt	-8	3	4
Cc1nc(C)c(C(=O)C2=C(O)C(=O)N(CCCn3ccnc3)C2c2ccc(Cl)cc2)s1 (stereo unspecified)	-3	-1	3	i	nt	-13	-2	2
CCCc1cc(=O)[nH]c(SCC(=O)N(CC)Cc2ccccc2)n1	-5	-5	7	i	nt	nt	0	2
COc1cc2c(cc1OC)C(c1ccccc1Cl)N(C)CC2 (stereo unspecified)	2	11	-5	i	-4	6	-3	-4
